# Rce1 inhib: yeast Rce1p protease inhibitors, primary screen, biochemical, fluorescence, cell-free homogeneous | CAAX prenyl protease 2 (Saccharomyces cerevisiae (strain ATCC 204508 / S288c)), Q03530 | yeast membranes, quenched prenylated peptide cleavage fluorescence | calls only | 290,000 compounds, 0.27% hits | AID 2563, 2010;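 active means fall in fluorescence gain of 50% or more versus controls, with final raw signal at or below 3038400; inconclusive means same 50% fall but final raw signal above 3038400; inactive means fall in fluorescence gain under 50%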;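 further: plate controls were neutral control wells for no effect and wells lacking membranes for full effect; tested at 10 µM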
# HIV Env fusion: inhibitors of HIV-1 Env-driven cell-cell fusion, primary screen, HeLa-JRFL effector, CEM21 target cells, luciferase; 360,000 compounds, 1.1% hits; inhibition, % at 12.3 µM;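 active means mean replicate inhibition score of at least 50 and every replicate individually at or above 50; inconclusive means only one of the two criteria met; inactive means mean below 50 and not all replicates reaching 50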;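 further: 0% = plate neutral controls and 100% = maraviroc near 300 nM; one replicate is shown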
# eIF4H FP inh: human eIF4H binding inhibitors, primary screen, translation initiation inhibitor project, biochemical, uHTS, fluorescence polarization; Eukaryotic translation initiation factor 4H (Homo sapiens), Q15056; eIF4H fluorescence polarization binding assay; inhibition, % at 35 µM; 290,000 compounds, 0.94% hits;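 active means 50% or more with normal probe brightness, or confirmed in later tests; inconclusive means above 50% with abnormal brightness, or retests that disagree; inactive means below 50% or failed in later tests; about a fifth of its hits are not listed in these tables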;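 further: calls also rest on retests at 20 µM and on dose response follow-up; 0% = protein and probe with vehicle and 100% = probe without protein; strong numbers were not always called active; many hits fall short of the cut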
# Yeast UUG start: modulators of yeast start codon fidelity, primary screen, whole organism, S. cerevisiae, single point, plate reader; 350,000 compounds, 0.13% hits; activity score, % at 18.7 µM; S. cerevisiae UUG-firefly luciferase reporter, luminescence/redox ratio;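 active means replicate mean at a twofold rise or more, about +100% in these data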;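 further: firefly luciferase made from a UUG start codon reports start codon fidelity; reporter light over untreated wells divided by growth signal over untreated wells; some hits fall short of that in this replicate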
# PABP FP inh: PABP poly(A) RNA binding inhibitors, primary screen, biochemical, fluorescence polarization, uHTS; Polyadenylate-binding protein 1 (Homo sapiens), P11940; inhibition, % at 35 µM; 290,000 compounds, 1% hits; AID 2014, 2009;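 active means 50% or more with normal probe brightness, or confirmed in later tests; inconclusive means above 50% with abnormal brightness, or retests that disagree; inactive means below 50% or failed in later tests; about a fifth of its hits are not listed in these tables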;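 further: calls also rest on retests at 20 µM and on dose response follow-up; controls were probe without protein and protein plus probe with vehicle; some compounds called inactive have numbers as strong as hits; many hits fall short of the cut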
# Target sequence (P11940 whole entry, looked up): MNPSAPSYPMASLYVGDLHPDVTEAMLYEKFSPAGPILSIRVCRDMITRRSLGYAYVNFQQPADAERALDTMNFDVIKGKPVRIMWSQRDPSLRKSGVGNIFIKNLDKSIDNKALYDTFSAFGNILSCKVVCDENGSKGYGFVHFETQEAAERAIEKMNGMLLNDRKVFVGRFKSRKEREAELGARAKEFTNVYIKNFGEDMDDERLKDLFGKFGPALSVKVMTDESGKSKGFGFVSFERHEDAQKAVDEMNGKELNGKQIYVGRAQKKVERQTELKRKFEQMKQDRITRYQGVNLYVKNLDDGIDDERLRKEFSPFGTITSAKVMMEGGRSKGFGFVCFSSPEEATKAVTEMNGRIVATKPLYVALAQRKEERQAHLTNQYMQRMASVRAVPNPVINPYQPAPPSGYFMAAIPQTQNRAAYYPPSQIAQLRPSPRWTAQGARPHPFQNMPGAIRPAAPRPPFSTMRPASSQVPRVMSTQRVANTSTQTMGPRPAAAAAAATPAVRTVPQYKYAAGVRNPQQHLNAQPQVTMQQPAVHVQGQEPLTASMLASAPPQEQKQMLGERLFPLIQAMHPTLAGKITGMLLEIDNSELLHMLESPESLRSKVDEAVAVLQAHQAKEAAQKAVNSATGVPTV
# MT1-MMP act inh: blockers of MT1-MMP proenzyme processing, primary screen, HT1080 RFP-PRO-GFP cells, GFP/RFP fluorescence; 360,000 compounds, 0.061% hits; Matrix metalloproteinase-14 (Homo sapiens), P50281; GFP/RFP ratio fluorescence, overnight; percent of plate control window, DMSO zero; GFP/RFP ratio change, % at 20 µM; AID 651647, 2012;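 active means GFP/RFP ratio change of at least 30% with cell ATP level not reduced by more than half and red fluorescence within 50% of control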; further: strong numbers were not always called active
#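 Assay system: HT1080 RFP-PRO-GFP cells | Dosing: 20 µM single dose, 1% DMSO | Incubation: Cells overnight before dosing, compound overnight, 37 °C, 5% CO2 | Evaluation: GFP/RFP fluorescence ratio | Control set: DMSO-only wells and HT1080 RFP-L50D-GFP cell wells as references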
# CSC inhib: cancer stem cell viability inhibitors, primary screen, luminescence | 300,000 compounds, 1.1% hits | inhibition, % at 7.5 µM | cancer stem cell-like cells viability;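 active means mean at 75% or more and at least half the replicates too; inconclusive means mean and replicates disagree; tested in HMLE shEcad cells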;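 further: 0% = median of negative and 100% = median of positive control wells; the first replicate is given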
# eIF4H FP inh retest: also measured in eIF4H FP inh; calls as there; inhibition, %; compound at 20 µM; confirmation average;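 mean of two retest wells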
# PABP FP inh retest: second read-out of PABP FP inh, no call of its own (marks repeat the call); inhibition, %; compound at 20 µM; confirmation repeats;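 mean of two retest wells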
# MT1-MMP act inh RFP: further read-out of MT1-MMP act inh, marked with its call; RFP signal change, %; measured here: RFP expression control read;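 0 = vehicle wells; hits needed this value within 50% of zero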
# * = called active by the depositor; i = inactive; ? = inconclusive; · = not tested or not shown. An excerpt; count on the stated rates, not on these rows.
SMILES,Rce1 inhib,HIV Env fusion,eIF4H FP inh,Yeast UUG start,PABP FP inh,MT1-MMP act inh,MT1-MMP act inh RFP,CSC inhib,others
COC(=O)c1ccc(/C=N/N2CCN(Cc3ccc(C)cc3C)CC2)cc1,i,3,1,-11,4,11,-9,-6,
O=C(CCC(=O)N1CCN(Cc2ccccc2)CC1)Nc1nnc(C2CCCCC2)s1,i,-2,1,-10,-6,3,-3,-6,
CCNC(=O)C1(C)CCCN1Cc1ccccc1Cl (centres undefined),·,14,·,-15,·,-3,-1,·,
CCOC(=O)[C@H]1[C@H]2COc3cc(OC)ccc3[C@@H]2N2C(=O)CN(Cc3ccccc3)C(=O)[C@@]12C,·,-2,·,-15,·,-3,0,-18,
C=CCN1N=C(c2ccc(Cl)s2)CSC1=O,i,i,8,-7,9,·,·,-7,
CC1=C(C(=O)c2ccccc2)C(c2ccc(O)cc2)NC(=S)N1 (centres undefined),i,-11,8,·,4,-11,0,5,
COc1ccc(CC(=O)Nc2cccc(S(=O)(=O)N3CCCCCC3)c2)cc1OC,i,68*,-13,3,-4,-6,-27,10,
COc1ccccc1-c1nc2n(n1)C(c1cccs1)C(C(=O)Nc1cccnc1)=C(C)N2 (centres undefined),i,-64,3,-21,1,1,9,-17,
O=C(COC(=O)c1ccc(-c2ccccc2)cc1)Nc1ccccc1-c1ccccc1,i,1,5,-7,2,-3,-6,-6,
CC(=O)Cc1nsc(Nc2cccc(C)c2)n1,i,-29,-4,-21,-2,0,-2,1,
CCOC(=O)c1ccc(NC(=O)CCNS(=O)(=O)c2ccc3c(c2)oc(=O)n3C)cc1,i,15,-7,-24,-2,-4,-4,-10,
CN(Cc1ccc(OC(F)F)cc1)C(=O)c1ccccc1Sc1ccccc1C#N,i,56*,-7,-8,-7,3,-14,-4,
O=C(Nc1c2c(nc3ccccc13)CCCC2)c1ccccc1Cl,i,9,-2,-20,8,4,5,0,
C=CCn1c(SCC(=O)NC(=O)NCC(C)C)nnc1C1CCCCC1,i,-1,0,-1,-3,-2,-3,44,
COC(=O)c1cc(-c2ccccc2)sc1NC(=O)c1cc(C)on1,i,·,7,·,10,·,·,·,
COc1cccc(CNc2nc(NC(C)C)nc3ccsc23)c1,·,36,·,-5,·,6,-12,·,
O=C(O)c1cccc(N2C(=O)c3ccc4c5c(ccc(c35)C2=O)C(=O)N(c2cccc(C(=O)O)c2)C4=O)c1,i,10,11,-9,28,-2,-2,-21,
COc1cc(NC(=O)CSCc2ccccc2)c(C(=O)O)cc1OC,i,5,-3,-3,-1,3,0,13,
CCC[N+](CC#CCO)(CC#Cc1ccccc1)CCC,i,-25,-3,·,2,0,-1,-10,
O=C(CN1C(=O)C2CCCCC2C1=O)Nc1nc(-c2ccc(F)cc2)cs1 (centres undefined),i,·,·,-12,·,-1,-4,-1,

# A draw from above in order of heavy-atom count, low to high.
SMILES,Rce1 inhib,HIV Env fusion,eIF4H FP inh,Yeast UUG start,PABP FP inh,MT1-MMP act inh,MT1-MMP act inh RFP,CSC inhib,others
COc1cccc(CNc2nc(NC(C)C)nc3ccsc23)c1,·,36,·,-5,·,6,-12,·,
COC(=O)c1cc(-c2ccccc2)sc1NC(=O)c1cc(C)on1,i,·,7,·,10,·,·,·,
C=CCn1c(SCC(=O)NC(=O)NCC(C)C)nnc1C1CCCCC1,i,-1,0,-1,-3,-2,-3,44,

# The results go on:
SMILES,Rce1 inhib,HIV Env fusion,eIF4H FP inh,Yeast UUG start,PABP FP inh,MT1-MMP act inh,MT1-MMP act inh RFP,CSC inhib,others
CS(=O)(=O)c1ccc2nc(NC(=O)c3ccc(S(=O)(=O)NCC4CCCO4)cc3)sc2c1 (centres undefined),i,12,-2,·,-2,4,-4,-7,
CCOC(=O)Nc1cc(C(=O)OC)cc(C(=O)OC)c1,i,2,-7,-14,-15,-5,-2,-10,
COc1cc(C)c(C(C)C)cc1S(=O)(=O)n1ccnc1,i,·,2,-5,-14,2,4,-4,
Cc1cc(C(=O)Nc2cccc(S(=O)(=O)N3CCCC3)c2)c2ccccc2n1,·,3,·,-14,·,6,-6,·,
CCOc1cc(OCC)cc(C(=O)O)c1,i,-25,5,-7,2,1,2,-12,
Cc1cc(NC(=O)COC(=O)c2ccccc2S(=O)(=O)N(C)c2ccccc2)no1,i,3,-7,·,?,0,-1,27,
NC1=NC(=O)C(Cc2ccc(F)cc2)S1 (centres undefined),·,5,4,-18,-3,-3,-3,-5,
CN(C)CCNC(=O)C1(C)Cc2c(-c3cccc(C(F)(F)F)c3)ccnc2O1 (centres undefined),·,4,·,-10,·,2,5,·,
CCN(CC)c1ccc(/C=c2\sc3nc4ccccc4n3c2=O)c(O)c1,·,17,?,·,-6,-50,-2,·,
CCCCCOc1ccc2oc(=O)c3c(c2c1)CCCN3C(=O)CN1CCCC(C(=O)OCC)C1 (centres undefined),i,17,-2,15,-3,-7,-12,15,
O=C1CCCC/C=C\C[C@H](CC(=O)N(CCO)Cc2ccccc2)C(=O)N[C@@H](c2ccccc2)CO1,·,20,·,12,·,5,2,-6,
CC(=O)Nc1ccc(S(=O)(=O)NCCC(=O)OCc2nc(N)nc(Nc3ccccc3C)n2)cc1,i,·,·,-18,·,-2,2,1,
CCn1cc(Cl)c(C(=O)Nc2cccc(CN3CCOCC3)c2)n1,i,-3,-4,-11,-8,-5,0,0,
CC(Sc1nnc(COc2ccc(Cl)cc2)n1-c1ccccc1)C(=O)O (centres undefined),i,-11,2,4,6,1,0,-6,
COc1cccc(NC(=O)c2c(C)cc(C)cc2CC(C)(C)C(=O)O)c1,i,-7,0,·,7,4,-1,8,
Oc1ccccc1N=Cc1ccc[nH]1,i,-60,49*,-32,81*,-1,7,11,eIF4H FP inh retest=93*;PABP FP inh retest=54*
O=C(c1cccnc1)N1CCN(c2c(Cl)cccc2[N+](=O)[O-])CC1,i,·,-4,-8,-3,3,2,·,
CCc1ccc(N(CC(=O)NC2CCCC2)S(=O)(=O)c2c(C)noc2C)cc1,i,8,-19,-10,12,-3,1,1,
CC1CCN(c2ccc(NC(=O)c3ccccc3[N+](=O)[O-])cc2)CC1,i,-20,-5,-26,5,1,0,-3,
CCCN1CCC(NC(=O)Nc2cc(Cl)ccc2OC)CC1,i,10,-2,·,4,0,-2,·,
O=C1CC(N2CCN(c3ccccc3O)CC2)C(=O)N1Cc1ccccc1 (centres undefined),i,-3,-8,-16,0,1,3,-13,
O=C(NNC(=S)Nc1ccccc1)NNC(=S)Nc1ccccc1,i,9,-6,·,0,2,2,-6,
CCOC(=O)c1nn2c(C(F)(F)F)cc(-c3ccc(OC)cc3)nc2c1Br,i,5,6,-18,6,-4,1,-22,
CCC(C)(CC(=O)N(C)CCC#N)c1ccccc1 (centres undefined),i,-36,-1,-11,-4,-5,0,-9,
Cc1ccc2nc(SCC(=O)Nc3ccc(F)cc3F)[nH]c2c1,i,-1,-8,-19,-5,-3,-6,6,
OC(c1ccc(Cl)c(F)c1)c1ncc(-c2ccc(F)cc2)[nH]1 (centres undefined),·,-3,·,-15,·,6,-2,·,
N#CC1=C(SCc2ccccc2)NC2=C(C(=O)CCC2)C1c1ccc2c(c1)OCO2 (centres undefined),i,24,-1,-12,1,-4,-10,25,
Cc1ccc(Cl)cc1NC(=O)Nc1c(C)n(C)n(-c2ccccc2)c1=O,i,-131,4,3,-1,-2,-1,-9,
CC1Cc2ccccc2N1C(=O)Cn1cnc2ccccc21 (centres undefined),i,10,-6,·,-16,1,-11,-1,
CC(C)(C)c1nnc(SCC(=O)c2ccccc2)n(N)c1=O,i,3,0,·,6,0,2,-7,
Cc1ccc(-n2c(COc3ccccc3)n[nH]c2=S)cc1,i,21,26,-3,17,1,3,-16,
Cc1ccc(-c2nnc(SCC#CCOC(=O)c3ccco3)o2)cc1,i,-27,1,-14,-3,4,2,-1,
O=[N+]([O-])c1ccccc1S(=O)(=O)n1cnc2ccccc21,i,3,-13,·,1,-1,2,-2,
CC(=O)N(c1ccc(N(C(C)=O)S(=O)(=O)c2cccs2)cc1)S(=O)(=O)c1cccs1,i,-80,8,-11,-3,0,2,-6,
COc1ccc(CNC(=O)C2Cc3c(-c4ccccc4)ccnc3O2)cc1OC (centres undefined),·,-45,·,-6,·,-3,-7,·,
COc1ccc(Cl)cc1S(=O)(=O)Nc1cccc(C(=O)O)c1,i,-10,-11,-16,-4,0,4,-13,
CCCCNC(=O)N(O)C1N(/N=C/c2ccc(N(C)C)cc2)C(=S)SC1(C)C (centres undefined),i,10,0,-29,2,3,1,-18,
COc1ccc(N2CCN(S(=O)(=O)CCNC(=O)c3ccc(Br)o3)CC2)cc1,i,9,-8,-2,3,1,-3,-9,
CCCCC1=NN2CCS(=O)(=O)N=C2S1,i,-6,8,·,3,-4,1,-8,
CC(C)(C)n1nnnc1C(c1cccs1)N(Cc1ccc(Cl)cc1)CC1CCCO1 (centres undefined),i,·,5,-14,1,-22,-29,27,
O=C1NC(=O)/C(=C\c2ccc(OCc3cccc([N+](=O)[O-])c3)cc2)N1,i,3,5,·,-7,6,-3,-14,
CCCn1ncc(CN2CCC(n3nccc3NC(=O)c3ccccc3Cl)CC2)c1C,i,-5,-3,-15,7,-3,-4,4,
COc1ccc(NC(=O)Nc2cccc(C(F)(F)F)c2)cn1,i,10,15,-11,9,1,-11,15,
CCCCc1c(O)nc(SCC(=O)N2CCOCC2)n(-c2ccc(C)cc2)c1=O,·,24,·,-2,·,2,5,·,
Oc1c(C2=NCCNC(C(F)(F)F)=C2)ccc2ccccc12,i,-167,1,·,-5,16,-3,·,
CCN(CC)c1ccc2c(Cl)cc(=O)oc2c1,i,-160,12,·,-4,·,·,-8,
Cc1cc(NC(=O)CS(=O)(=O)c2ccc(F)cc2)no1,i,6,·,-5,·,-7,0,-3,
Cc1ccc(C)c(N(CC(=O)NC2CCCCC2)C(=O)c2snc(C(N)=O)c2N)c1,·,14,-4,-6,5,1,-5,-19,
CC(C)CC(=O)c1c(O)c(C=O)c(O)c2c1O[C@@]1(C)[C@@H](C2)C[C@H]2C[C@@H]1C2(C)C,·,-10,·,-41,·,14,-2,107*,
Cc1ccnc(NC(=O)c2ccc(S(=O)(=O)N3CCC(C)CC3)cc2)c1,i,-48,·,·,·,-2,-3,·,
# (next part)
SMILES,Rce1 inhib,HIV Env fusion,eIF4H FP inh,Yeast UUG start,PABP FP inh,MT1-MMP act inh,MT1-MMP act inh RFP,CSC inhib,others
Nc1ccc(-c2cn3cccnc3n2)cc1,i,-13,-3,-12,-8,0,2,·,
O=C(COC(=O)c1ccc(Br)o1)NC12CC3CC(CC(C3)C1)C2,·,9,·,-33,·,1,-1,1,
CCOc1cc(/C=N/NC(=O)c2cccnc2)ccc1OCC(N)=O,i,2,-7,·,3,1,2,-15,
CC(=O)c1cccc(NC(=O)N2CCC(c3ccc(C)cc3)C2)c1 (centres undefined),i,-18,-8,8,10,3,-4,-8,

# Source: PubChem
